From PubChem
Arbovirus inh – arbovirus infection inhibition; actives 0.37% (n = 200,000); arbovirus infection cell-based antiviral screen; inhibition, % at 10 µM;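 active = inhibition from about 30%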;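 also: bluetongue infection of BSR cells; cell survival read as ATP light after 72 h; 0% = infected wells without compound and 100% = uninfected wells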
Mtb bLac sens – beta-lactam sensitization of Mtb H37Rv. M. tuberculosis H37Rv growth with meropenem, percent inhibition; hits of this screen are not shown here. inhibition, % at 25 µM. actives 0.27% (n = 330,000);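 active = about 74% or more and at least 40 points above the plate without the antibiotic, then above 30% in a dose series; inconclusive = first-round hits that could not be retested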;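 also: growth measured after seven days incubation then overnight dye step; 0% = bacteria only wells and 100% = bacteria with antibiotic; twin plates without the antibiotic show which effects depend on it; some results filed as inactive read as strong as hits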
RecA intein inh – Mtb RecA intein splicing inhibition; P9WHJ3; cell-free RecA intein splicing, fluorescence; inhibition, %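 (about 9 µM by stock and volumes)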; actives 0.75% (n = 290,000); in the data active = inhibition above about 30%; inconclusive = no clear call, values can overlap the other calls;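 also: 0% = vehicle wells and 100% = reference inhibitor control wells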
Target sequence (P9WHJ3 whole entry, looked up): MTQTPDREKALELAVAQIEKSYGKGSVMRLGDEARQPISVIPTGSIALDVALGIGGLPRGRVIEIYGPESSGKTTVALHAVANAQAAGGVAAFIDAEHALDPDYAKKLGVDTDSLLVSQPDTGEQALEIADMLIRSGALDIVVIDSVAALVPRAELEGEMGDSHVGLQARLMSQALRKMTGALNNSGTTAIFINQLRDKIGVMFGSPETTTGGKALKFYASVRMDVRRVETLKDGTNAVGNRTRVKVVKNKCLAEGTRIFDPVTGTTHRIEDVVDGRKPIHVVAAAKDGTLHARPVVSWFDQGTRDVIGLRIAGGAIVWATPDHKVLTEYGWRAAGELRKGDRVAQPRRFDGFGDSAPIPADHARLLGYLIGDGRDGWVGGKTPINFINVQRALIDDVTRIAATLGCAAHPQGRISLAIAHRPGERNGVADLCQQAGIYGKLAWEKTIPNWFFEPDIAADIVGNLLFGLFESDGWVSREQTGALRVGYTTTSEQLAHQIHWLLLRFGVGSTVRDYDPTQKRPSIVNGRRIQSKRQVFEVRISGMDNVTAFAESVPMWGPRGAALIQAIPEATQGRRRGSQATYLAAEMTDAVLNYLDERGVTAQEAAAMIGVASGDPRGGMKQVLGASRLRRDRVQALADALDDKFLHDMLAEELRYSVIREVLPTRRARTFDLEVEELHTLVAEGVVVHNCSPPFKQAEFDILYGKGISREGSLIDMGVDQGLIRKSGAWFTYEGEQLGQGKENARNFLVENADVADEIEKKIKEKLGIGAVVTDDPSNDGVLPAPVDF
Mtb growth – M. tuberculosis H37Rv growth inhibitors, H37Rv strain (AID 1626). M. tuberculosis H37Rv growth inhibition; higher % means a stronger effect. inhibition, % at 10 µM, or IC50 in µM where a hit was titrated. actives 0.95% (n = 220,000);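 active = confirmed in a dose series; inconclusive = inhibition above 80% but not taken into the dose series; inactive = below 80% or under 30% at every dose of the series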;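 also: bacteria incubated seven days before Alamar blue readout; 0% = bacteria only wells and 100% = bacteria with antibiotic wells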
YopH inh – YopH (Yersinia) phosphatase inhibition; fluorescence Ex485/Em525; inhibition, %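 (about 10 µM by stock and volumes)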; actives 0.16% (n = 140,000);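 active = inhibition of 50% or more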;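 also: controls were vehicle for no effect and minimum signal wells for full effect; inactives centre near -20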
Arbovirus inh repeat – also measured in Arbovirus inh; calls as there; inhibition, %; measured here: 10K subset replicate screen; many hits read low in the repeat;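 first of two repeat runs on a subset; 0% = infected and 100% = uninfected wells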
Numbers without * were called inactive; ? = inconclusive; . = not tested or not shown; & = joins results of further samples. Some of the compounds tested; the hit share may differ from the screen's.

SMILES	Arbovirus inh	Mtb bLac sens	RecA intein inh	Mtb growth	YopH inh	others
COc1ccc(-c2ccc(CNCCCN3CCOCC3)o2)cc1Cl	-14	-8	-2.2	1%	.
Cc1ccc2nc(C)cc(OCC(=O)O)c2c1	5	5	0.5	-12%	-32
COc1ccc(-c2cc3ccc(OCC(N)=O)cc3oc2=O)cc1OC	.	7	-54	.	.
CC(=O)Nc1ccc(CN2CCc3c([nH]c4ccccc34)C2c2ccccn2)cc1 (stereo not drawn)	-18	1	2.7	-1%	.
COc1ccc(/C=N/NC(=O)C2C(C=C(Cl)Cl)C2(C)C)c(OC)c1 (stereo not drawn)	4	-2	2.7	4%	.
CN1C(=O)C(O)(CC(=O)c2ccccc2O)c2cc(Br)ccc21 (stereo not drawn)	-14	-1	4.6&-0.1	-6%	-36	Arbovirus inh repeat=-5
CCN1C(C(=O)Nc2cc(C)on2)=C(O)c2ccccc2S1(=O)=O	.	-5	-3.4	.	.
O=C(NC1(C(F)(F)F)OCCO1)c1ccc(F)cc1	4	0	-1.6	-13%	.
CCOc1ccc(C(=O)Nc2c3c(nn2-c2ccc(F)cc2)CS(=O)C3)cc1 (stereo not drawn)	12	-14	0.9	-2%	-20
CN1CCN(S(=O)(=O)c2ccc(Cc3ccc(S(=O)(=O)N4CCN(C)CC4)cc3)cc2)CC1	-7	-6	0.0	-9%	-6
COc1ccccc1NC(=O)N1CCN(CCc2ccccc2)CC1	.	4	-1.0	-3%	.
Cc1cc(C)n2nc(N)c(N=Nc3ccc4c(c3)OCO4)c2n1	-3	-2	1.1	5%	-32
COc1ccc(C2Nc3ccccc3C(=O)N2NS(=O)(=O)c2ccc(C)cc2)cc1OC (stereo not drawn)	.	8	-5.5	.	.
CC(=O)N1c2ccc(S(=O)(=O)N(C)CC(=O)NCc3ccc(C)cc3)cc2CC1C (stereo not drawn)	.	3	-3.9	.	.
C=C(C)Cn1c(=O)c2c(nc3n2CC(C)CN3Cc2ccccc2)n(C)c1=O (stereo not drawn)	.	-6	-1.2	.	.
CCOC(=O)c1cc(-c2ccccc2)sc1NC(=O)CSc1nnc(N)s1	-2	-1	1.2	0%	.
CCCNC(=O)C1CCCN(S(=O)(=O)c2ccc3c(c2)CC(C)N3C(=O)C2CC2)C1 (stereo not drawn)	.	-1	0.9	.	.
OCC(O)C(O)C(O)C(O)c1nc2ccccc2[nH]1 (stereo not drawn)	2	2	1.3	-3%	.
COC(=O)CCCC1=CC2=C(c3ccccc3)C(=O)C(C)(OC(=O)C3CCCC3)C(=O)C2=CN1CCN1CCOCC1 (stereo not drawn)	.	-2	1.3	5%	.
Cc1cc(=O)oc(C)c1C(=O)Nc1ccc(N(C)C)cc1	.	-3	0.0	1%	.
CC1C(=O)N2CCCc3cc(NC(=O)C(=O)NCCN4CCOCC4)cc1c32 (stereo not drawn)	.	-7	0.6	.	.
COc1cc2[nH]c(C(=O)NCCc3ccccc3)cc2c(OC)c1OC	.	-2	0.6	.	.
O=C(Nc1ccc(NC(=O)c2ccco2)c(Cl)c1)c1ccc2c(c1)OCCO2	.	-3	1.5	-8%	.
CC(=O)CC(=O)Nc1cccc2c1CCCC2	20	-4	-0.3	-1%	-15	Arbovirus inh repeat=4
CCNCC1(c2ccc(OC)c(OC)c2)CCCC1	0	-4	-4.9	4%	-28
CCOC(=O)N1CCN(C(=O)CSc2nnc(-c3cc(OC)cc(OC)c3)o2)CC1	3	100	0.2	2.8µM*	-21
NS(=O)(=O)c1ccc2nc(NC(=O)c3ccc4c(c3)OCCO4)sc2c1	.	-5	-1.0	.	.
O=C(CC(c1ccco1)S(=O)(=O)c1ccccc1)c1ccc(F)cc1 (stereo not drawn)	-4	17	2.3	-7%	-19
COc1ccc(CCC(=O)Nc2cc(Cl)ccc2N2CCN(C)CC2)cc1	-19	-7	.	-5%	-8
C/C(=N\NC(N)=S)c1ccc(Cl)s1	6	96	7.6	?	-23
Cn1nnnc1SCC(=O)NC(C)(C)C	1	-5	1.0	-6%	-49
CC(=O)Nc1nnc(CCN2CCCCC2)s1	10	-15	0.2	-5%	-103
O=C(NCC(F)(F)F)Nc1ncccn1	3	-1	-1.5	0%	-35
OCCC1CN(Cc2ccsc2)CCN1C1CCCC1 (stereo not drawn)	1	-10	0.4	3%	.
Cn1nc(C(F)(F)F)c2cc(NC(=O)OCC(C)(C)C)sc21	-5	100	-0.4	13µM*	-34
c1ccc2[nH]c(CSc3ncnc4c3oc3ccccc34)nc2c1	-3	-11	-3.3	-11%	-11
O=C(COc1ccc2ccccc2c1)Nc1cccc2cccnc12	11	65	3.5	-5%	-33
COCCN1CCN(Cc2nc(Cc3ccc(OC)c(OC)c3)no2)CC1	8	-10	-1.8	-6%	.
S=c1[nH]nc(CCc2ccc(Cl)cc2)o1	-2	9	-0.3	7%	-2
COC(=O)c1c(C)[nH]c(C(=O)CN2CCOCC2)c1C	0	-19	-1.3	-14%	-23
CCCCCN1C/C=C\C(c2ccc(OC)cc2)N(Cc2ccc(F)cc2)C(=O)C1 (stereo not drawn)	.	-1	7.8	5%	.
CCOCC(=O)Nc1ccc([N+](=O)[O-])cc1C	0	-4	-1.7	5%	.
COc1cc2c(cc1OC)C(c1cc(C)ccc1C)CC(=O)N2 (stereo not drawn)	.	0	1.9	.	.
O=C(CSc1nc(-c2ccc(F)cc2)cs1)NCCN1C(=O)CSC1=O	-1	-5	0.6	-1%	.
COc1ccc(/C=N/NC(=O)Nc2cccc3nsnc23)c(OC)c1	5	5	-25	-2%	-22
CCOC(=O)c1c(C)nc(SC)c(C#N)c1-c1ccccc1	-7	5	14	4%	-5
CCOC(=O)c1oc2ccccc2c1CN1CCCCC1	0	3	-2.9	-3%	.
Cc1csc(N/N=C/c2ccc([N+](=O)[O-])cc2)n1	.	-2	-2.1	.	.
COc1ccc(Nc2nc(NCCO)nc(OC)n2)cc1	-3	-1	.	0%	-14
CS(=O)(=O)N(CC(N)=O)Cc1ccc(Cl)cc1	5	0	-0.5	-9%	7
O=C(c1nn(-c2ccccc2)c(=O)c2ccccc12)N1CCN(c2ncccn2)CC1	6	-5	2.9	-18%	.
COc1ccc(/C(C)=N/Nc2nc(C)c(C(C)=O)s2)cc1	.	49	-2.5	.	.
Cc1ccccc1Nc1c(F)c(F)c(F)c(F)c1C(=O)O	10	7	-1.5	6%	.
Cc1ccc(CSCC(=O)N(C)CC(=O)Nc2ccccc2Cl)cc1	.	-12	0.2	.	.
Nc1ccc(NC(=O)c2ccco2)c(Cl)c1	1	5	-5.5	-5%	.
CCC(=O)NC1=C(Nc2ccc(N)cc2)C(=O)c2ccccc2C1=O	.	1	0.2	.	.
O=C(COc1cccc2cccnc12)N1CCc2ccccc21	-7	3	5.1	-9%	.
Cc1cc(SCC#N)nc2ccccc12	-2	-7	1.0	6%	.
CCC(C)(C)NC(=O)c1cc(C(=O)OC)cc([N+](=O)[O-])c1	3	4	-4.4	-3%	-19
Cc1ccc(SCCC(=O)NCCSCc2ccccc2C)cc1	1	1	11	1%	-26

3 compounds already listed, ordered by molecular weight, low to high:
SMILES	Arbovirus inh	Mtb bLac sens	RecA intein inh	Mtb growth	YopH inh	others
O=C(COc1cccc2cccnc12)N1CCc2ccccc21	-7	3	5.1	-9%	.
CCC(=O)NC1=C(Nc2ccc(N)cc2)C(=O)c2ccccc2C1=O	.	1	0.2	.	.
O=C(c1nn(-c2ccccc2)c(=O)c2ccccc12)N1CCN(c2ncccn2)CC1	6	-5	2.9	-18%	.

The listing continues:
SMILES	Arbovirus inh	Mtb bLac sens	RecA intein inh	Mtb growth	YopH inh	others
O=C(C(=O)N1CCc2ccccc2C1)c1cn(CC(=O)N2CCCC2)c2ccccc12	2	2	-1.5	2%	-27
NC(=S)N/N=C/c1ccccc1OC(=O)c1cc2ccccc2oc1=O	.	29	-1.9	.	.
CC1CCN(c2nnc(NC(=O)Cn3c(=O)oc4ccccc43)s2)CC1	-2	5	-0.1	0%	-37
CC(C)(C)CC(=O)Nc1ccccc1N1CCN(c2ccccc2)CC1	6	2	13	12%	.
CCn1c(SCC(=O)NCC2CCCO2)nc2c(c1=O)SCC2 (stereo not drawn)	.	-2	-3.0	.	.
O=C(C1CCN(S(=O)(=O)c2cccc3cccnc23)CC1)N1CC=C(c2ccccc2)CC1	6	-2	.	.	-16	Arbovirus inh repeat=3
Cc1c(C(=O)NCc2ccccc2)oc2ccc(S(=O)(=O)N3CCCC3)cc12	2	1	-0.1	5%	-39	Arbovirus inh repeat=-7
COc1cc(C(=O)Nc2ccc3c(c2)Cc2ccccc2-3)cc(OC)c1OC	-18	0	0.8	0%	-28
CC(NC(=O)NC1CCCCC1)C(c1cccs1)N1CCN(C)CC1 (stereo not drawn)	5	0	-1.9	-4%	-26
CC(=O)N1c2ccc(S(=O)(=O)NCc3ccco3)cc2CC1C (stereo not drawn)	.	-7	0.6	.	.
CCc1cc2c(SCC(=O)c3ccccc3)ncnc2s1	-4	7	0.2	5%	-12
COc1ccc(CC(=O)N(C)Cc2ccc(C(C)(C)C)cc2)cc1S(=O)(=O)N1CCOCC1	.	-13	-3.6	.	.
Nc1c(S(=O)(=O)c2ccccc2)cnc2c(-c3ccc(F)cc3)cnn12	-5	-3	-1.1	-3%	-18
COCCn1c(SCC(=O)N2CCCCC2)nc2c(c1=O)SCC2	.	-14	-0.2	.	.
COC(=O)c1cccc(NC(=S)NCc2ccco2)c1	7	3	-1.5	2%	.
O=C(NNS(=O)(=O)c1ccccc1)c1cccc(F)c1	.	3	2.0	.	.
CCN(CC)C(=O)CSc1nc2c(sc(=S)n2Cc2ccco2)c(=O)n1-c1ccccc1	-8	1	12	4%	-26
Cc1ccc(N(C)C(=O)c2ccc3c(Cl)c4c(nc3c2)CCC4)cc1C	-33	4	20	7%	-27
O=C1c2cccc(Cl)c2C(=O)N1c1ccccn1	.	-9	-2.6	.	.
CC(=O)Nc1c(F)cc(Br)cc1F	.	-7	-1.8	-4%	.
N#Cc1nn(-c2ccccc2)nc1N1CCCCC1	3	32	10	5%	-27
O=C(NCCN1CCCCCC1)c1ccc(CS(=O)(=O)c2ccc(Br)cc2)o1	-3	0	1.4	1%	-17	Arbovirus inh repeat=-2
CCOc1ccc(CCNC(=O)C2CCN(S(=O)(=O)N3CCC(C)CC3)CC2)cc1OCC	0	2	0.2	-4%	-23
Nn1c(SCC(=O)NC(=O)NCc2ccco2)nnc1-c1ccc(OC(F)F)cc1	5	0	0.3	.	-12
O=C(NCCCn1ccnc1)C(=O)NCC1OCCN1S(=O)(=O)c1cc(F)ccc1F (stereo not drawn)	.	0	1.0	-1%	.
Cc1ccc(S(=O)(=O)NCCC(=O)N2CCCCCC2)cc1	.	-8	-1.3	.	.
O=C(NCc1cccs1)Nc1ccc(Cl)cc1	-12	-6	4.0	7%	-26
NC(=O)CC(NC(=O)Cc1cccc2ccccc12)c1ccc(NC2CCCCC2)c([N+](=O)[O-])c1 (stereo not drawn)	.	-7	1.8	5%	.
COc1ccc(S(=O)(=O)N2CCN(C(=O)Nc3ccccc3OC)CC2)cc1	.	-3	-4.5	.	.
CCNC(=O)NC(=O)COC(=O)c1cccc(S(=O)(=O)N2CC3(C)CC2CC(C)(C)C3)c1 (stereo not drawn)	.	1	-3.0	.	.
Cc1ccc(C(=O)COc2ccc3ccc(=O)oc3c2)cc1	.	-6	-4.5	-4%	.

Structural class: the compounds so far with two or more sulfur atoms.
SMILES	Arbovirus inh	Mtb bLac sens	RecA intein inh	Mtb growth	YopH inh	others
CN1CCN(S(=O)(=O)c2ccc(Cc3ccc(S(=O)(=O)N4CCN(C)CC4)cc3)cc2)CC1	-7	-6	0.0	-9%	-6
CCOC(=O)c1cc(-c2ccccc2)sc1NC(=O)CSc1nnc(N)s1	-2	-1	1.2	0%	.
NS(=O)(=O)c1ccc2nc(NC(=O)c3ccc4c(c3)OCCO4)sc2c1	.	-5	-1.0	.	.
C/C(=N\NC(N)=S)c1ccc(Cl)s1	6	96	7.6	?	-23
O=C(CSc1nc(-c2ccc(F)cc2)cs1)NCCN1C(=O)CSC1=O	-1	-5	0.6	-1%	.
Cc1ccc(SCCC(=O)NCCSCc2ccccc2C)cc1	1	1	11	1%	-26
CCn1c(SCC(=O)NCC2CCCO2)nc2c(c1=O)SCC2 (stereo not drawn)	.	-2	-3.0	.	.
CCc1cc2c(SCC(=O)c3ccccc3)ncnc2s1	-4	7	0.2	5%	-12
COCCn1c(SCC(=O)N2CCCCC2)nc2c(c1=O)SCC2	.	-14	-0.2	.	.
CCN(CC)C(=O)CSc1nc2c(sc(=S)n2Cc2ccco2)c(=O)n1-c1ccccc1	-8	1	12	4%	-26
